T cruzi repl: T. cruzi replication inhibition; T. cruzi beta-gal in NIH3T3, luminescence, 90 h; inhibition, % (test concentration not listed); hit rate 1.4% among 300,000; AID 1885;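 active = mean inhibition across valid replicates above about 55%, limit read from the data; inconclusive = mean below that limit but half or more replicates reach it; inactive = mean below it, under half of replicates reach it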;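 also: signal also drops with host cell toxicity which is not excluded here; 0% = plate median of DMSO wells and 100% = zero luminescence signal; higher percent means less beta-gal luminescence so fewer parasites; stock transfer was 50 nL into about 50 µL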
ALR H2O2 inh: blocks human ALR sulfhydryl oxidase activity; hit rate 3.8% among 290,000; inhibition, % (no concentration beside the values); AID 485317; P55789; purified ALR, DTT oxidation, H2O2 HRP-luminol luminescence;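 active = mean and each replicate at 75% or more; inconclusive = only one of the two met; inactive = neither met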;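 also: stock transfer was 7.5 nL into about 7.5 µL; 0% = neutral wells and 100% = wells with inactivated enzyme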
Target sequence (P55789 whole entry, looked up): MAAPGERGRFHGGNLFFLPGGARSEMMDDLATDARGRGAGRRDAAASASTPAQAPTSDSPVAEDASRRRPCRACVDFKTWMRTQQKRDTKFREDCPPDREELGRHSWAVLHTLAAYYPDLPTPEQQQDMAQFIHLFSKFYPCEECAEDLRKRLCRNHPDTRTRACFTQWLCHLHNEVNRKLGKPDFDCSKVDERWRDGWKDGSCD
Ecoli rRNA inh: inhibitors of bacterial rRNA selective over humanized ribosomes; E. coli WT GFP vs humanized-ribosome RFP mutants, fluorescence, 24 h; hits give low values; DMSO median 0, no signal -100; GFP signal change (wild-type ribosome), % (no concentration beside the values); hit rate 1.6% among 350,000; AID 720706;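 active = significant combined selectivity score with lowered wild-type GFP, culture density cut under 30%, mutant RFP and density less affected; inactive = any of these conditions unmet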; also: one replicate is shown; some compounds called inactive have numbers as strong as hits
AF4-AF9 inh: MLL-AF4/AF9 protein interaction inhibition; hit rate 0.47% among 350,000; AID 651704; inhibition, % at 10 µM; AlphaScreen, biotin-AF4 peptide binding to FLAG-AF9;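 active = every replicate reaching a set inhibition limit, whatever the replicate mean, cut at about 25% in these data; inconclusive = mean inhibition reaches that limit but some replicates miss it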;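 also: 0% = plate neutral control median and 100% = total signal loss; the record names both 10 and 1 µM as test concentration; the first replicate is given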
Target sequence (P42568 whole entry, looked up): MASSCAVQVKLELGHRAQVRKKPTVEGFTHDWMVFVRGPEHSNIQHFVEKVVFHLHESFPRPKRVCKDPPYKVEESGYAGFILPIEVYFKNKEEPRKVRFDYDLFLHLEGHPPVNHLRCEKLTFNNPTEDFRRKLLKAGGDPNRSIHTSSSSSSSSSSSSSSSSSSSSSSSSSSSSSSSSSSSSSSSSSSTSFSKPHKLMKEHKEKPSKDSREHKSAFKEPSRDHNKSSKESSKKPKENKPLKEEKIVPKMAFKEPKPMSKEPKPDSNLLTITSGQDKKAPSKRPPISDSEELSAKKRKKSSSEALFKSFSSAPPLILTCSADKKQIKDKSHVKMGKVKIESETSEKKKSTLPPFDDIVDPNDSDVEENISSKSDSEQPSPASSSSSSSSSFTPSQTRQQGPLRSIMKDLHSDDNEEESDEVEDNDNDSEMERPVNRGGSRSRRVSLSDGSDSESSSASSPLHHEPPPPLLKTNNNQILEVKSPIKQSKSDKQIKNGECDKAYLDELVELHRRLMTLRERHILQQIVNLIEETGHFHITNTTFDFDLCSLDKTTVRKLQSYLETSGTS
Calb FLC: affects C. albicans growth with fluconazole | AID 1979 | hit rate 0.57% among 300,000 | growth inhibition, % (test concentration not listed) | C. albicans CaCi-2 (fluconazole-resistant clinical isolate) + fluconazole, Alamar Blue growth, 48 h;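 active = most replicates above 75%; inconclusive = exactly half above 75%; inactive = most below 75%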;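 also: all wells also contain fluconazole at 8 µg/ml as a sub-toxic cotreatment; 0% = median of DMSO wells and 100% = median of geldanamycin control wells; wells of about 8 µL received 7.5 nL stock; the first replicate is given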
Beta apoptosis: beta cell apoptosis inhibition | INS-1E cytokine-induced death, ATP luminescence, 48 h; percent of positive-control rescue, neutral wells zero | protection from apoptosis, % (concentration not given with the values) | hit rate 0.8% among 300,000 | AID 435005;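 active = all replicates at 75% or more, or half of them and the mean; inconclusive = half reach 75% but not the mean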;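 also: 0% = cytokine-treated negative control wells and 100% = positive control rescue; higher means more ATP so stronger rescue from cytokine killing; wells of about 40 µL received 100 nL stock; the first replicate is given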
FGF22 binding: FGF22 (human) thermal shift binding. Q9HCT0. recombinant FGF22 thermal shift, SYPRO orange fluorescence; percent of sucrose octasulfate shift, DMSO zero. hit rate 1.5% among 340,000. calls only at 9.99 µM;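 active = melting point raised past a set limit in the mean and every replicate; inconclusive = no clear call; three in four hits are not shown here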
Target sequence (Q9HCT0 whole entry, looked up): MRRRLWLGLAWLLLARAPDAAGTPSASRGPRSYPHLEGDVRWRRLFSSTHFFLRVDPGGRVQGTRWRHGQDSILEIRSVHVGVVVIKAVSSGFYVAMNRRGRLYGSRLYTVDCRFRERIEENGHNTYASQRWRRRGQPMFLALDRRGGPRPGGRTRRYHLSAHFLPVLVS
RanGTP-Impb inh: disruptors of Ran-importin-beta complex formation – biochemical, FRET, CFP-Ran, YFP-importin-beta, homogeneous, primary screen; cell-free CFP-Ran/YFP-importin-beta FRET ratio; inhibition, % (test concentration not listed); hit rate 1.1% among 300,000; AID 2216;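 active = most replicates above 15%; inconclusive = exactly half above 15%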;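 also: 0% = DMSO wells and 100% = Ran loaded with GDP instead of GTP; wells of about 40 µL received 100 nL stock; the first replicate is given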
Ecoli rRNA inh OD600: further read-out of Ecoli rRNA inh, marked with its call; OD600 change, %; measured here: OD600 growth;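 optical density of the mix in the first replicate; 0 = DMSO median and -100 = no signal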
Ecoli rRNA inh RFP: recorded beside Ecoli rRNA inh, whose call it bears; RFP signal change, %; measured here: RFP humanized mutant strains;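 first replicate; 0 = DMSO median and -100 = no signal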
An asterisk follows results filed as active; i = inactive; ? = inconclusive; . = not tested or not shown. Not all compounds are listed, so the mix of outcomes need not match the whole.

item	Molecule	T cruzi repl	ALR H2O2 inh	Ecoli rRNA inh	Ecoli rRNA inh OD600	Ecoli rRNA inh RFP
1	Cc1cc2nc(C)c(=O)n(C)c2cc1C	-6	4	.	.	.
2	Oc1ccccc1Cn1nnc2ccccc21	-12	.	-13	-20	-3.4
3	CCOC(=O)c1c(NC(C)=O)sc2c(OC(C)=O)cccc12	-15	8	.	.	.
4	O=C1OC(c2ccccc2)c2ccccc21 (stereo not drawn)	-1	-4	1	7	-0.9
5	O=C(OCCCOc1ccc(F)cc1)c1ccc(O)cc1O	1	-8	-65	-78	-25
6	Cc1ccc(NC(=O)CSc2nnc(-c3cnccn3)n2Cc2ccco2)cc1	13	7	.	.	.
7	N/C(=N\OC(=O)c1ccc2ccccc2c1)c1ccc(Br)cc1	-1	.	.	.	.
8	CCc1nc(SCc2ccc(Cl)cc2)n[nH]1	-11	0	-9	-8	-4.0
9	Cc1ccc(C(=O)/C=C/N(C)C)o1	-14	-6	18	14	1.5
10	CCOc1ccccc1CNS(=O)(=O)c1csc(C(N)=O)c1	-11	-1	7	0	1.9
11	COC(=O)C1=C(C)NC(=S)N(C(C)=O)C1c1ccccc1 (stereo not drawn)	-21	-6	.	.	.
12	O=C(NCc1ccncc1)C(=O)NCC(c1ccco1)N1CCN(c2ccccc2F)CC1 (stereo not drawn)	8	1	.	.	.
13	Cc1ccc(C(CC(=O)N2CCCCC2)c2ccccc2)c(O)c1C (stereo not drawn)	-14	.	-9	-15	4.4
14	CC(=O)Nc1ccc(-c2csc(NNC(=O)c3ccc(C)cc3)n2)cc1	.	-13	2	8	2.7
15	O=C(c1cc(-c2cccc(Cl)c2)on1)N1CCc2ccccc2C1	6	-19	7	12	0.3

item	AF4-AF9 inh	Calb FLC	Beta apoptosis	FGF22 binding	RanGTP-Impb inh
1	.	-8	2	.	-0.8
2	-0.2	-7	-5	i	0.8
3	.	-5	-5	.	1.7
4	0.6	3	1	i	?
5	0.1	14	2	i	-4.6
6	.	42	-1	.	0.0
7	-5.4	-4	1	i	0.5
8	-2.1	7	1	i	-0.4
9	-1.0	2	.	i	3.7
10	-3.8	-5	0	i	-1.8
11	.	-6	-4	.	8.4
12	.	14	3	.	3.6
13	3.2	-13	.	i	?
14	11	-18	-10	i	1.6
15	4.8	0	-9	i	7.8

Continued.
item	Molecule	T cruzi repl	ALR H2O2 inh	Ecoli rRNA inh	Ecoli rRNA inh OD600	Ecoli rRNA inh RFP
16	CC(=O)c1cnn(-c2c(Cl)cc(Cl)cc2Cl)c1C	.	6	-22*	-18*	-6.5*
17	Cc1ccc(-c2csc(NC(=O)CN3CCOCC3)n2)cc1C	-4	25	.	.	.
18	COc1ccc(CCNC(=O)COC(=O)c2cc(OC)c(OC)cc2OC)cc1OC	-9	-4	12	6	1.2
19	Cc1cc(C(=O)N2CCCC(N3CCN(c4cccc(C(F)(F)F)c4)CC3)C2)n[nH]1 (stereo not drawn)	9	-13	-7	-8	0.1
20	Cc1cnc(C(=O)OCC(=O)Nc2ccc(Cl)cc2Cl)cn1	7	1	.	.	.
21	COc1ccc(NC(=O)C2OCCc3ccccc32)c(OC)c1 (stereo not drawn)	5	-41	.	.	.
22	O=C(/C=C/c1ccco1)NCc1ccccn1	-12	2	15	9	-0.9
23	O=C(NCC1CCN(C(=O)c2ccc([N+](=O)[O-])cc2)CC1)c1ccc([N+](=O)[O-])cc1	1	.	5	12	-0.6
24	CC1(c2nnc(-c3ccc(Cl)cc3)o2)CC(c2ccc([N+](=O)[O-])cc2)=NO1 (stereo not drawn)	-8	.	-4	-4	-3.7
25	COc1ccc(OCC(=O)NNC(=O)c2ccc(-c3ccccc3)cc2)cc1	0	1	.	.	.
26	O=C(COc1ccccc1Cc1ccccc1)Nc1cccnc1	.	2	-51	-73	-18
27	CC(C)c1ccc(OCC(=O)N2CCN(C(=O)c3ccco3)CC2)cc1	6	-11	-1	-4	-0.7
28	COc1ccccc1CN1CCN(C(=O)c2cccc3ccccc23)CC1	11	-26	1	-1	6.9
29	O=S1(=O)NC(=NCCOCCO)c2ccccc21	-8	-2	21	28	0.3
30	COc1cc(C(=O)NCC(c2cccs2)N2CCOCC2)c([N+](=O)[O-])cc1OC (stereo not drawn)	0	-2	1	1	-2.1

item	AF4-AF9 inh	Calb FLC	Beta apoptosis	FGF22 binding	RanGTP-Impb inh
16	0.4	3	-3	i	-1.2
17	.	-5	10	.	-2.0
18	-0.9	-11	4	i	-3.6
19	-5.6	-2	0	i	-0.2
20	.	-5	4	.	-3.6
21	.	14	-6	.	0.9
22	-4.0	24	-4	.	1.0
23	0.4	6	-2	i	6.3
24	-2.1	16	-5	i	2.5
25	.	-5	-1	.	2.2
26	-1.9	.	-4	i	.
27	-0.7	-45	-3	i	2.9
28	5.7	3	-13	i	-0.3
29	-2.8	-8	-1	i	?
30	-7.4	1	-2	i	6.6

(more compounds)
item	Molecule	T cruzi repl	ALR H2O2 inh	Ecoli rRNA inh	Ecoli rRNA inh OD600	Ecoli rRNA inh RFP
31	CC(C)(C)OC(=O)CC12CCCCC1NC(=O)O2 (stereo not drawn)	-7	-3	7	6	5.9
32	COCCCNC(=O)Cn1cnc2sc(C)c(S(=O)(=O)N3CC(C)CC(C)C3)c2c1=O (stereo not drawn)	-12	-3	.	.	.
33	C/C(N)=C(/C#N)C(=O)COC(=O)c1cc(-c2ccccc2)nc2ccc(Br)cc12	7	-2	.	.	.
34	Cc1ccc(N2CC(C)Cn3c2nc2c3c(=O)[nH]c(=O)n2C)cc1C (stereo not drawn)	-5	38	14	6	-1.7
35	CCCCCn1c(CNC(C)=O)nc2ccccc21	-10	-2	.	.	.
36	CCN(CCCn1c(SCC#N)nc2ccccc2c1=O)c1ccccc1	19	14	.	.	.
37	Cc1cc(NS(=O)(=O)c2ccc(NC(=S)NC(=O)c3ccncc3)cc2)no1	6	.	4	-2	-7.7
38	Cc1ccccc1NC(=S)N/N=C/c1ccc(O)cc1O	49	99*	-18	-23	0.2
39	O=C(Nc1cc(Cl)ccc1O)C1CC(c2ccccc2O)=NO1 (stereo not drawn)	-15	33	-23	-27	3.5
40	Clc1nc(CN2CCOCC2)nc2sc3c(c12)CCC3	-2	25	0	-5	0.1
41	CC1CCc2c(sc(NC(=O)C3CCCO3)c2C#N)C1 (stereo not drawn)	6	5	-19	-23	-4.1
42	O=C(CN1C(=O)C2CC=CCC2C1=O)Nc1ccc(Br)cc1 (stereo not drawn)	-6	-5	2	6	-0.5
43	Cc1nc(C)c(-c2ccccc2)c(=O)[nH]1	9	-5	.	.	.
44	C[C@@H]1COC(=O)[C@@H](Cc2ccc(F)cc2)C/C=C\C[C@@H](CC(=O)N[C@H](CO)Cc2ccccc2)C(=O)N1	.	-3	-3	1	-4.4
45	COc1cccc(C(=O)N2CCN(c3ccc(N4CCOCC4)nn3)CC2)c1	-18	.	9	8	-2.4

item	AF4-AF9 inh	Calb FLC	Beta apoptosis	FGF22 binding	RanGTP-Impb inh
31	-0.1	1	-8	i	1.9
32	.	2	0	.	-0.6
33	.	1	8	.	1.9
34	-1.0	-13	-3	i	-1.5
35	.	-3	-1	.	0.6
36	.	-3	16	.	1.1
37	9.3	-5	-6	i	1.4
38	11	5	87*	i	3.2
39	1.0	13	2	i	-2.7
40	0.1	5	-16	i	-2.9
41	-0.5	15	-4	.	1.0
42	-4.5	-5	-2	i	?
43	.	1	-4	.	5.9
44	-2.8	.	10	i	.
45	-26	-12	2	i	-5.2

Next part
item	Molecule	T cruzi repl	ALR H2O2 inh	Ecoli rRNA inh	Ecoli rRNA inh OD600	Ecoli rRNA inh RFP
46	COc1cc(C2C(C(=O)OC(C)C)=C(C)Nc3[nH]c(=O)[nH]c(=O)c32)ccc1O (stereo not drawn)	-12	79*	.	.	.
47	CC1CCCC(C)N1C(=O)c1cc(-c2cccs2)on1 (stereo not drawn)	-2	-45	.	.	.
48	O=C(NCc1nnc(SCC(=O)N2CCCc3ccccc32)o1)c1ccco1	2	-5	0	-3	1.5
49	Cc1ccc(NC2=NC3(CCCCC3)N=C(N)N2)c(C)c1	11	-6	.	.	.
50	O=C(C1CCC1)N1CCc2cc(S(=O)(=O)NC3CCCC3)ccc21	6	0	.	.	.
51	COc1ccc(OC)c(S(=O)(=O)NC2CC(=O)N(c3ccc(C)c(C)c3)C2)c1 (stereo not drawn)	6	0	-10	-4	1.8
52	CC1(C)CC(=O)c2sc(NS(=O)(=O)c3ccc([N+](=O)[O-])cc3)nc2C1	-5	-13	-3	-1	0.5
53	COC(=O)C1=C(C(=O)OC)[C@@H]2Nc3ccccc3[C@@]23C[C@@H](C(=O)OC)N(C(=O)CC(C)C)C3=N1	3	-17	7	7	1.5
54	O=C(O)CNc1nc(-c2ccccc2)nc2c1oc1ccccc12	6	-2	-5	8	10
55	N=C1/C(=C/c2cccn2Cc2ccc(F)cc2)C(=O)N=C2SC=CN12	2	-1	3	0	41
56	COc1ccc(C)cc1NC(=O)C1CCN(C(=O)C2CC(=O)N(c3ccc(C)cc3)C2)CC1 (stereo not drawn)	-4	-2	-2	0	1.1
57	O=C(Nc1ccccc1C(F)(F)F)c1cnccn1	-2	-8	7	7	-0.8
58	CC(C)CN1CCNC(=O)C1CC(=O)NCc1cnn(-c2cccc(F)c2)c1 (stereo not drawn)	6	-2	16	10	1.6
59	O=C(C1=NN[C@@H]2C(=O)N(c3cccc(F)c3)C(=O)[C@H]12)c1cnccn1	-17	68	.	.	.

item	AF4-AF9 inh	Calb FLC	Beta apoptosis	FGF22 binding	RanGTP-Impb inh
46	.	3	.	.	-0.5
47	.	-12	-13	.	5.6
48	-5.6	-2	-6	i	-1.3
49	.	-13	.	.	0.1
50	.	-5	6	.	0.8
51	-4.9	2	.	i	-1.6
52	-6.1	-2	-5	i	-1.0
53	9.8	1	-1	i	3.2
54	-2.8	0	-6	i	3.2
55	-9.9	-4	3	i	-0.8
56	-2.3	-5	-4	i	1.1
57	-10	5	-5	i	4.4
58	-0.2	-24	-1	.	-4.8
59	-0.9	-5	-4	i	1.5

Full records as entered above. Values in the order: T cruzi repl	ALR H2O2 inh	Ecoli rRNA inh	Ecoli rRNA inh OD600	Ecoli rRNA inh RFP	AF4-AF9 inh	Calb FLC	Beta apoptosis	FGF22 binding	RanGTP-Impb inh
Record of Cc1cc(C(=O)N2CCCC(N3CCN(c4cccc(C(F)(F)F)c4)CC3)C2)n[nH]1 (stereo not drawn) → 9	-13	-7	-8	0.1	-5.6	-2	0	i	-0.2
Record of O=C(NCc1ccncc1)C(=O)NCC(c1ccco1)N1CCN(c2ccccc2F)CC1 (stereo not drawn) → 8	1	.	.	.	.	14	3	.	3.6
Record of Cc1ccc(NC(=O)CSc2nnc(-c3cnccn3)n2Cc2ccco2)cc1 → 13	7	.	.	.	.	42	-1	.	0.0
